PMP22 txn – Cell-based coincidence reporter assay to measure PMP22 gene transcription in S16 Pmp22-F2sN cells - Primary screen; S16 Pmp22-F2sN Schwann cells (luciferase reporters placed in the Pmp22 gene), FLuc/NLuc coincidence luminescence, 24 h; actives 2% (n = 43,000); AID 1508649, 2021; Potency, µM (doses to about 57.5 µM), for the others: top-dose activity change, negative = inhibition, most hits filed as inhibitors; active = clear falling dose curves in both reporters; inconclusive = both reporters move, but less clearly or upward; inactive = either reporter flat; the % is the NLuc reporter signal; note: % is set by controls: 0 for no effect and ±100 for the full control effect; some results filed as inactive show a strong effect at the top dose
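Luminescent read-out of sequential FLuc and NLuc signals from a reporter embedded in the Pmp22 3' UTR of S16 Schwann cells, taken after 24 h compound exposure at 37C; compounds reducing both signals score as inhibitors of expression.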
HTT prom inh – Primary qHTS for Identification of Small Molecule Inhibitors of Huntingtin Promoter Activity; AID 1508623, 2021; Potency, µM (highest dose often 57.5 µM), for inactives: top-dose activity change, negative = inhibition, most hits filed as inhibitors; HEK293 HTT promoter firefly luciferase reporter (activity 0% = vehicle and -100% = no light), 24 h; actives 0.93% (n = 48,000); active = well fitted inhibition curve with a large enough effect; inconclusive = small, poorly fitted or top-dose-only effect; inactive = no such curve, though single readings can be large or run the other way; note: nearly all actives have a fitted effect of over 50% in size
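Quantitative HTS used concentration series of up to 57.5 uM final on HEK293 luciferase reporter cells, 24 h at 37 degrees C. Readout was Dual-Glo firefly luminescence.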
* marks the source's active call; other numbers are inactive results; ? = inconclusive; . = not tested or not shown; [ ] = remark or other dose. Potency is the fitted concentration of half-maximal effect.

Molecule,PMP22 txn,HTT prom inh
O=C(Nc1ccc(F)c(Cl)c1)C1CCCN(c2ncnc3onc(-c4ccc(F)cc4)c23)C1 (centres undefined),?,?
CSc1ncc(C(=O)Nc2cc(Cl)ccc2C)c(-c2ccccc2)n1,-12.7%,-11.0%
CCc1nn(CC(=O)N2CCN(c3cccc(Cl)c3)CC2)c(=O)c2cc3sccc3n12,2.1%,-13.1%
CC(C)c1cc(C(C)C)c(CC(=O)NS(=O)(=O)Oc2c(C(C)C)cccc2C(C)C)c(C(C)C)c1,.,?
COc1ccc(CNC(=O)c2cc3cc(C)ccc3n2C)cc1,-3.4%,-21.1%
Cc1ccc(Cl)cc1N1CCN(C(=O)CCS(=O)(=O)c2cc(Br)cc3c2N(C(=O)C2CC2)CC3)CC1,?,-23.8%
CCc1cc2c(cc(C(=O)OC)n2Cc2nc(-c3ccc(C)cc3)oc2C)s1,3.8%,-6.0%
Cc1cc2c(cc1S(=O)(=O)CCC(=O)Nc1ccc(OC(F)(F)F)cc1)OCC(=O)N2,-3.3%,-10.3%
Cc1nnc2c3ccccc3nc(N3CCN(c4cccc(Cl)c4)CC3)n12,?,-3.0%
CCc1ccc(NS(=O)(=O)c2ccc3oc(=O)c4ncn(CC)c4c3c2)cc1,-16.0%,-28.5%
CCc1ccc(-c2cn3c(n2)sc2cc(C(=O)NC4CCCCC4)ccc23)cc1,-2.1%,-7.4%
Cc1ccc(-c2nc3cc(Cl)ccc3o2)cc1NC(=O)COc1ccc(F)cc1,5.5%,8.5%
CCc1ccc(CN(Cc2ccco2)c2cnc(S(C)(=O)=O)nc2C(=O)Nc2c(C)cccc2C)cc1,-7.0%,?
CCCCOC(=O)Cn1nnc2sc(-c3ccccc3)cc2c1=O,-6.5%,9.4%
CCc1ccc(NS(=O)(=O)c2cc(-c3cnc(C4CC4)o3)ccc2C)cc1,-51.0%,?
CCOC(=O)C1CCCN(S(=O)(=O)c2ccc3c(c2)CCN3C(=O)CC)C1 (centres undefined),?,?
Cc1ccc2nc3c(cc(C(=O)NC4CCCCC4)c(=N)n3C(C)C)c(=O)n2c1,9.5%,-4.5%
CCc1ccc(CN2CCc3nc(N4CCN(c5ccccc5F)CC4)ncc3C2)cc1,?,?
Cc1ccc(C(=O)c2oc3ccccc3c2NC(=O)COc2ccccc2Cl)cc1,4.9%,-8.5%
O=C(CSc1c2c(nc3ccccc13)CCC2)Nc1ccc(F)cc1F,?,?
CCN(CC)C(=O)/C(C#N)=C/c1cc(O)c(O)c([N+](=O)[O-])c1,.,-3.0%
Brc1ccc(-c2cc3c(N4CCN(c5ccccc5)CC4)nccn3n2)cc1,-5.5%,-8.0%
COc1ccc(NC(=O)CSc2nccn2Cc2ccco2)cc1OC,-8.7%,-10.5%
COc1ccc(-c2cc(OC(=O)c3cccc(Cl)c3)c3c(C)oc(C)c3c(=O)c2)cc1,?,29.5%

An excerpt from the list above, for reference:
Molecule,PMP22 txn,HTT prom inh
CCN(CC)C(=O)/C(C#N)=C/c1cc(O)c(O)c([N+](=O)[O-])c1,.,-3.0%
Brc1ccc(-c2cc3c(N4CCN(c5ccccc5)CC4)nccn3n2)cc1,-5.5%,-8.0%

(cont.)
Molecule,PMP22 txn,HTT prom inh
COc1ccc(OC)c(S(=O)(=O)NCc2ccc3c(c2)CCN3C(=O)c2cccc(C)c2)c1,?,?
Fc1ccccc1N1CCN(c2nnc(C(F)(F)F)c3nnn(Cc4ccccc4)c23)CC1,-31.6%,0.7%
CCCc1ccc(-c2ccc(C(=O)Oc3ccc(Br)cc3)cc2)nc1,-11.9%,1.3%
CC(C)CC(=O)OCc1cc(=O)n2nc(C3CCCCC3)sc2n1,?,-5.1%
CCCNC(=O)CCCN1C(=O)CCn2nc(-c3cccn3C)cc21,11.9%,0.0%
CCN1CCN(C(c2ccc(OC)cc2)c2c(O)cc(C)n(Cc3ccco3)c2=O)CC1 (centres undefined),-42.0%,-7.7%
CCc1nc2cccnc2n1-c1ccc(CC(=O)Nc2ccccc2Cl)cc1,?,-30.7%
CC(=O)N1CCC(N(Cc2ccco2)C(=O)Nc2ccc(Br)cc2F)CC1,-57.7%,-0.5%
Cc1cccc(N2CCN(C(=O)C3CCC(CNS(=O)(=O)c4ccc(Br)s4)CC3)CC2)c1C (centres undefined),-6.6%,-12.0%
COc1cc2c(=O)n(CCc3ccccc3)c(=O)n(CC(=O)Nc3ccccc3)c2cc1OC,-20.2%,-24.5%
Oc1c(C(c2ccc(Cl)cc2Cl)N2CCN(Cc3ccccc3)CC2)sc2nc(-c3ccco3)nn12 (centres undefined),1.0%,12.4%
Cc1nn(C(=O)c2ccc(Br)cc2)c(C)c1Sc1ccccc1,-28.7%,-25.9%
CCc1ccccc1N1CC(c2nc3ccccc3n2CCOc2ccc(Cl)c(C)c2)CC1=O (centres undefined),?,?
Cc1ccc(-n2nc(C)c3c(C)cc(=O)n(CC(=O)Nc4cccc(C)c4C)c32)cc1,1.2%,-8.1%
COc1ccccc1CNC(=O)CC(c1ccc(OC)c(OC)c1)N1Cc2ccccc2C1=O (centres undefined),-12.7%,-6.6%
CCOC(=O)C1CCCN(S(=O)(=O)c2ccc(N3CCCCS3(=O)=O)cc2)C1 (centres undefined),?,-31.7%
COc1cccc(CNC(=O)CCc2nnc3n(CC(C)C)c(=O)c4ccccc4n23)c1,-7.8%,-7.3%
CC1=C(c2ccc(C)c(C)c2)S(=O)(=O)NC1=NCc1ccccc1Cl,-2.1%,?
CCOc1ccc(/C=C/c2nc3ccccc3n2S(=O)(=O)c2cccc(Cl)c2)cc1,?,?
COc1ccc(C)cc1NC(=O)c1ccc2c(=O)n3c(nc2c1)CCCCC3,-29.6%,-15.2%
COc1ccc2c(c1)c1c(c(=O)n(Cc3ccccc3)c(=O)n1CC(=O)Nc1ccccc1OC)n2C,-0.5%,-18.6%
CCOc1cc2ncc(C#N)c(Nc3ccc(F)c(Cl)c3)c2cc1NC(=O)C=CCN(C)C,.,-5.9%
Cc1cccc(Cn2cc3c(=O)n(CC(=O)Nc4ccc(C)c(F)c4)nc-3c3cc(F)ccc32)c1,-0.2%,-3.8%
CCOC(=O)CC(=O)CSc1nc2ccccc2c(=O)n1-c1ccc(C(=O)NCCOC)cc1,-21.1%,-12.5%

(further entries)
SMILES	PMP22 txn	HTT prom inh
O=C(Cc1csc2ccccc12)NCc1ccccc1F	-0.3%	26.2%
Cc1ccc2nc3c(cc(C(=O)NCc4ccco4)c(=N)n3C(C)C)c(=O)n2c1	-19.0%	-7.6%
CCOc1ccc(CC(=O)NCc2ccc3c(c2)CCN3C(C)=O)cc1OCC	25.5%	-22.8%
CCCCN(CCCNC(=O)c1cc(Nc2ccc(OC)c(OC)c2)nc2ccccc12)c1ccccc1	-28.6%	15.3%
O=C(Nc1ccc(S(=O)(=O)N(Cc2ccccc2)c2ccccc2)cc1)c1ccc(F)cc1	?	?
CC(C)(C)C(=O)Nc1cccc(-c2cn3cccnc3n2)c1	0.0%	31.3%[activator]
CCCOC1(C(F)(F)F)NC(=O)N(c2ccc(Cl)cc2)C1=O (centres undefined)	-4.1%	-29.9%
COc1cccc(CNC(=O)c2sc3ncccc3c2-n2c(C)ccc2C)c1OC	?	?
COC(=O)CC1Oc2ccccc2-n2cc(-c3ccc(Cl)cc3)nc21 (centres undefined)	-29.2%	-13.1%
COc1cccc(C2CC(=O)Nc3c2c(=O)nc2c(C)cccn32)c1OC (centres undefined)	?	-0.2%
COc1ccc(OC)c(CNS(=O)(=O)c2ccc3c(c2)CCCN3C(C)=O)c1	-16.3%	?
COc1cccc(NC(=O)c2cnc(SCC(=O)N3CCOCC3)n(C)c2=O)c1	?	20.2%
COc1ccc(CNc2nc3ccccc3c3nc(-c4ccccc4)nn23)cc1	-1.9%	-13.4%
O=c1cc(-c2ccc(F)cc2)nc(SCc2nc(-c3ccccc3Cl)no2)[nH]1	0.4%	-0.2%
CC(C)(C)OC(=O)N1CCC(c2c(C(=O)N3CCN(Cc4ccccc4)CC3)cnn2-c2ccc(Cl)cc2)CC1	?	?
Cc1ccc(-c2nnc(Nc3ccc(Br)cc3)c3ccccc23)cc1S(=O)(=O)NCc1nc2ccccc2[nH]1	?	?
CCn1cc(C(=O)NCCc2ccc(Cl)cc2)c(=O)c2cc(S(=O)(=O)N3CCc4ccccc4C3)ccc21	-13.0%	4.8%
Cc1ccc(C)c(CSc2nc3ccncc3n2Cc2nc(-c3ccccc3Cl)oc2C)c1	?	?
COc1ccc(CCC(=O)NC2CC(=O)N(c3ccc(OC)cc3)C2)cc1 (centres undefined)	-4.5%	-6.2%
CN(Cc1ccccc1)C(=O)c1cn(C)c2ccc(S(=O)(=O)N(C)C3CCCCC3)cc2c1=O	?	-2.8%
Cc1nc2ccn(Cc3cccnc3)c(=O)c2cc1C(=O)Nc1ccc(F)cc1F	-30.8%	0.2%
Cc1ccccc1C(=O)N(Cc1sccc1C)C1CCS(=O)(=O)C1 (centres undefined)	1.8%	-12.0%
COc1ccc(NC(=O)C(=O)NCC2(c3ccccc3)CCCC2)c(OC)c1	?	-3.1%
CSc1ccc(NC(=O)C2CCN(c3ncccn3)CC2)cc1	-9.4%	17.0%
CCCCCn1c(=O)[nH]c2cc(C(=O)NCc3ccc(C)cc3)ccc2c1=O	7.1%	-11.9%
CCOc1ccc(/C=C/c2nc(C#N)c(NCc3ccccc3)o2)cc1	?	?
CCCOc1cccc(C2c3c(oc4ccc(F)cc4c3=O)C(=O)N2CCCN2CCOCC2)c1 (centres undefined)	-35.4%	-10.9%
CC1=C(C(=O)Nc2cccnc2)C(c2ccccc2Cl)n2nc(-c3ccccc3)nc2N1 (centres undefined)	23.1%	-6.5%
CCc1ccccc1NC(=O)c1ccc2c(SCC(=O)O)c3c(nc2c1)CCC3	-5.7%	0.4%
COc1ccc(COc2cc3oc(=O)c4cc(C(C)O)ccc4c3cc2OC)cc1 (centres undefined)	.	?
CCOc1ccc(NC(=O)C2CCN(S(=O)(=O)c3ccc4c(c3)oc(=O)n4C)CC2)cc1	-0.4%	-4.4%
Cc1cn2c(=O)cc(COc3ccccc3NC(=O)c3ccccc3C)nc2s1	-29.7%	5.2%
COc1ccc(NC(=O)C2=C(C)Nc3ncnn3C2c2ccc(O)cc2)cc1 (centres undefined)	3.7%	-8.4%
CCCCn1cc(S(=O)(=O)c2cccc(C)c2)c(=O)c2cc(F)c(N3CCOCC3)cc21	?	-11.6%
Cc1ccccc1NC(=O)Nc1nnc(N2CCCCCC2)s1	2.7%	10.6%
COc1ccc(NC(=O)c2nc(S(C)(=O)=O)ncc2N(Cc2ccc(C)cc2)Cc2ccco2)cc1Cl	-6.6%	-16.8%
COc1ccc(CNC(=O)c2ccc(-c3nc(CSc4ccccc4)c(C)o3)cc2)c(OC)c1	-17.3%	-14.1%
Cc1ccc(Cn2c(=O)c3cccnc3n(CC(=O)Nc3cccc(C(F)(F)F)c3)c2=O)cc1	?	?
CCOc1cccc(CC(=O)N2CCc3c([nH]c4ccccc34)C2c2ccc(SC)cc2)c1OCC (centres undefined)	33.6%	-13.6%
Cc1cccc(C(=O)Nc2ccc(OCc3cc(=O)n4ccc(C)cc4n3)cc2)c1	-4.8%	-10.4%

Complete entries, looked up by structure. Screens in order: PMP22 txn	HTT prom inh
COc1ccc(NC(=O)C2=C(C)Nc3ncnn3C2c2ccc(O)cc2)cc1 (centres undefined) as listed: 3.7%	-8.4%
COc1ccc(NC(=O)c2nc(S(C)(=O)=O)ncc2N(Cc2ccc(C)cc2)Cc2ccco2)cc1Cl as listed: -6.6%	-16.8%
CCOc1cccc(CC(=O)N2CCc3c([nH]c4ccccc34)C2c2ccc(SC)cc2)c1OCC (centres undefined) as listed: 33.6%	-13.6%

Other entries follow:
SMILES	PMP22 txn	HTT prom inh
CC1CCCCN1C(=O)c1ccc2c(c1)N(Cc1cccc(Cl)c1)C(=O)c1ccccc1S2=O (centres undefined)	-18.0%	?
CCN(CC)CCNC(=O)c1cc(S(C)(=O)=O)ccc1OC	.	7.1%
Cc1ccc(C)c(Cn2c(-c3cccs3)nc3ccccc32)c1	?	-27.8%
CN(C)C(=O)c1ccc2c(c1)N(CC(=O)NCc1ccc(F)cc1)C(=O)C1CCCCN21 (centres undefined)	5.9%	-3.8%
CNS(=O)(=O)c1cn(CC(=O)N2CCN(c3ccc(Cl)cc3)CC2)cc1S(=O)(=O)NC	-3.7%	-0.2%
Cc1ccc(NC(=O)CN2C(=O)COc3ccc(S(=O)(=O)N4CCCCCC4)cc32)cc1Cl	-20.2%	?
O=C(Nc1nc2c(s1)CCCC2)c1ccccc1F	2.7%	?
CCOc1ccc(-c2cn3c(n2)sc2cc(C(=O)NCCCN(CC)CC)ccc23)cc1	4.47µM*	?
CCOc1ccccc1CNC(=O)c1oc2c(c1C)-c1[nH]ncc1CC2	?	2.8%
Cc1ccc(-c2cc3ncc4c(n3n2)-c2ccccc2OC4)cc1	1.1%	41.3%[activator]
COc1ccc(C(=O)Nc2cc(-c3ccccc3)nn2-c2ccccc2)cc1	-31.6%	-25.0%

Bioassay records: PubChem BioAssay, National Center for Advancing Translational Sciences (NCATS)

Rows are unselected; about 2.6% have a hit in one of these screens.
